# Sfp PPTase inh: Sfp phosphopantetheinyl transferase inhibition. Biochemical Sfp PPTase activity, qHTS. Potency, µM, without a hit: max response, negative = inhibition, most hits filed as inhibitors. 3.5% of 310,000 active. AID 1490; active = well fitted inhibition curve with a large enough effect; inconclusive = small, poorly fitted or top-dose-only effect, or another doubt; inactive = no such curve, though single readings can be large or run the other way;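 also: the enzyme is Sfp with the accession as filed and its product quenches rhodamine fluorescence; potency is read from the fitted curve at half-maximal effect; 0% = enzyme reaction without inhibitor and -100% = no enzyme wells; top concentration of the series not given in the record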
#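 Fluorescence-quenching assay: 15 nM Sfp-PPTase preincubated 15 min at room temperature with compound, then 5 uM rhodamine-CoA and 12.5 uM BHQ-2-labelled YbbR peptide added. Fluorescence (ex 525/em 598 nm) read at start and after 30 min; difference gives rate.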
# Menin MLL FP FL: displaces fluorescein MLL peptide from human menin. FP activity change, % at 61.4 µM. AID 1766. Fluorescence polarization, fluorescein-MLL peptide displacement from menin. 290,000 tested, under 10 active; inconclusive = falling polarisation curve, or a change in total fluorescence; inactive = total fluorescence flat and polarisation flat or rising; no compound was filed as active; the % refers to the polarisation; negative = inhibition;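 also: % of control where 0% means no effect; inhibitors lower the polarisation; unlabelled MLL peptide was the positive control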
# ClpP mod: qHTS Assay for Activators of ClpP; ATP-dependent Clp protease proteolytic subunit (Bacillus subtilis (strain 168)), P80244; purified B. subtilis ClpP, FRET peptide cleavage, 20 min; Potency, µM (titrated, usually from 57.5 µM), without a hit: at the top dose activity change, negative = active; 1.9% of 340,000 active; AID 651965, 2013; active = well fitted falling curve with a large enough effect; inconclusive = small, poorly fitted or top-dose-only effect; inactive = no such curve, though single readings can be large or run the other way; also: potency is read from the fitted curve at half-maximal effect; the source files actives as falling curves though it sought activators and does not explain the sign; nearly all actives have a fitted effect of over 65% in size; many hits overshoot -100%
# Target sequence (P80244 whole entry, looked up): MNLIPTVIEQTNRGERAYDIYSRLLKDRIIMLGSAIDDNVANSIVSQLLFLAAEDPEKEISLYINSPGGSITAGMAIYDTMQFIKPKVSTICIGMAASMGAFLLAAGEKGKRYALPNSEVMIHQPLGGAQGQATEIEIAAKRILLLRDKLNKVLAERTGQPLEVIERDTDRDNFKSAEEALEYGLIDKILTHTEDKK
#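 ClpP 10 microg/mL final, pH 8 Tris/KCl buffer with BSA, glycerol, Tween-20; compound pinned in; FRET-FV substrate; RT 20 min; Ex320/Em430; ΔFRET vs ADEP 5.8 microM, DMSO, no enzyme.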
# gsp ag: gsp mutant agonism | Potency, µM (titrated, usually from 76.9 µM), without a hit: at the highest dose activation (cAMP increase), hits mostly activators | gsp mutant cells, cAMP HTRF, 30 min; control for the full effect not named in the record | 0.13% of 340,000 active; active = well fitted activation curve with a large enough effect; inconclusive = small, poorly fitted or top-dose-only effect, or another doubt; inactive = no such curve, though single readings can be large or run the other way; cell line not stated here;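 also: phosphodiesterase inhibitor Ro 20-1724 added with compounds to block cAMP breakdown; potency is read from the fitted curve at half-maximal effect; nearly all actives have a fitted effect of over 60% in size; about a fifth of the inactives were tested at one dose only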
#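 Cells in DMEM/10% FBS with G418 were pretreated with compounds in DMSO plus […] (300 uM stock) for 30 min at 37C. cAMP was measured by HTRF (cAMP-d2 plus anti-cAMP antibody-K) after 30 min at room temperature.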
# gsp antag: antagonists of gsp mutant (McCune-Albright syndrome); 0.4% of 340,000 active; gsp-mutant cells, cAMP HTRF, 30 min; control for the full effect not named in the record; Potency, µM (top dose mostly 76.9 µM), for inactives: at the top dose activity change, negative = inhibition, most hits filed as inhibitors; active = falling curve of any shape with a large fitted effect; inconclusive = falling curve, mostly with a smaller effect; inactive = flat or rising curve; cell line not stated here;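 also: intracellular cAMP measured with PDE inhibitor Ro 20-1724 present during compound exposure; potency is read from the fitted curve at half-maximal effect; % is scaled to controls: 0 for no effect and ±100 for the full control effect; nearly all actives have a fitted effect of over 65% in size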
#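 Cells, 2000/well, grown 16–24 h in DMEM 10% FBS with 0.5 mg/ml G418, then compounds plus […] (300 uM addition stock), 30 min at 37C. cAMP read by HTRF (cAMP-d2 and anti-cAMP antibody-K in lysis buffer) after 30 min RT.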
# TRPV1 potentiator: potentiators of human vanilloid receptor 1 (TRPV1); Q8NER1; AID 540277; 0.02% of 320,000 active; potentiation, % at 8.33 µM; TRPV1-expressing cells, Fluo-8 calcium influx, capsaicin EC20 potentiation; host cell line not named in the record; control for the full effect not named in the record; active means potentiation above 80%; inconclusive means 30% to 80%; inactive means below 30%; also: 0% is about no effect
# Target sequence (Q8NER1 whole entry, looked up): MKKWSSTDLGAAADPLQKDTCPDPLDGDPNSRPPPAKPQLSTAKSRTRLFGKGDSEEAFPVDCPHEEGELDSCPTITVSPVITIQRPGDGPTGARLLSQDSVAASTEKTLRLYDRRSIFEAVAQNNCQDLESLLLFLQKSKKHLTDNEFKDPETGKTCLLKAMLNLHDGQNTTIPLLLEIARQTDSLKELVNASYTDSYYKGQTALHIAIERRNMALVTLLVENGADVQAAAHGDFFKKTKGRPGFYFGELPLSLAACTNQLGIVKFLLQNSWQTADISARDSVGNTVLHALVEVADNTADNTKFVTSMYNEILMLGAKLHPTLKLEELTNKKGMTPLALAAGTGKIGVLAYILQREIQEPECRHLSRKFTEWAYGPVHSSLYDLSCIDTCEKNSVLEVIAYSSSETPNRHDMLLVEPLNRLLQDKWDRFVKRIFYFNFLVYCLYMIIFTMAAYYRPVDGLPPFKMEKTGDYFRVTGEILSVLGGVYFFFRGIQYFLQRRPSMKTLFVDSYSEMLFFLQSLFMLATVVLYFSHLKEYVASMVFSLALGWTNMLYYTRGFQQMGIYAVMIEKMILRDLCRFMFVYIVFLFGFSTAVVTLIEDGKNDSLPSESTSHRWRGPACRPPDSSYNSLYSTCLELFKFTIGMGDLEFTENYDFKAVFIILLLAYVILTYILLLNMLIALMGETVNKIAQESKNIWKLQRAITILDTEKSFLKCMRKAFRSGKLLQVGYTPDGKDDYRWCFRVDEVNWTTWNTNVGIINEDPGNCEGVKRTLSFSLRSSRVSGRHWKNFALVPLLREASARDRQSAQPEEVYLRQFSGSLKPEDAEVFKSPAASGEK
#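 TRPV1-expressing cells were cultured overnight at 35.5C and loaded with Fluo-8 calcium dye for 40 to 90 min at room temperature. After a 10 s baseline, compound was added and calcium influx was read kinetically for 3 min (ex 480/em 520 nm).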
# CtBP-E1A inh: inhibitors of CtBP/E1A interaction | AlphaScreen GST-E1A/His-CtBP binding, 1536-well; hits give low values; control for the full effect not named in the record | activity change, % (concentration not given with the values) | 0.49% of 340,000 active | AID 651724; in the data active means activity change below about -65%; inconclusive means about -30% to -65%; inactive means above about -30%; also: % is scaled to controls: 0 for no effect and ±100 for the full control effect
#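 In 5 uL wells, 23 nL compound meets equimolar GST-E1A and His-CtBP (5X stock 125 nM each) for 2 h, 37 °C. Beads (5X, 50 ug/mL) then 1 h, 37 °C, dark.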
# * = called active by the depositor; ? = inconclusive; . = not tested or not shown; [ ] = dose if it differs, or a comment.
compound,Sfp PPTase inh,Menin MLL FP FL,ClpP mod,gsp ag,gsp antag,TRPV1 potentiator,CtBP-E1A inh
COc1ccc(CCn2c(=N)c(C(=O)NCc3ccco3)cc3c(=O)n4ccccc4nc32)cc1,-16%,14,-30%,3%,6%,-13,-83*
COc1ccc(N(CN2C(=O)c3ccccc3C2=O)C(=O)COc2ccc(Cl)cc2Cl)cc1,12%,2.7,-0.3%,18%[15.4 µM],-12%,0,-1
Cc1ccc(/C=N/NC(=O)Cn2cnc3ccccc32)cc1,5%,-0.6,.,-12%[15.4 µM],2%,8,3
CCCCC(=NCCO)C1=C(O)C(C(=O)OC)C(C)(C)CC1=O (configuration not stated),10%,-0.6,-4.2%,16%,-9%,19,-3
Cc1ccc(C)c(NC(=O)C2C3C=CC(O3)C2C(=O)O)c1 (configuration not stated),-4%,-1.5,1.4%,8%[15.4 µM],0%,-10,-1
Cc1nn(Cc2c(Cl)cccc2Cl)c(C)c1NC(=O)CCCn1nc(C)c([N+](=O)[O-])c1C,-20%,0.1,?,2%[15.4 µM],0%,16,-1
CC(C)C(=O)Nc1ncc(Cc2ccc(Cl)cc2)s1,0%,1.5,.,-4%[15.4 µM],14%,-16,-18
CNC(=O)c1ccc(NC(=O)c2cccc(C(F)(F)F)c2)cc1,10%,5.1,.,9%[15.4 µM],.,-26,2
Cc1cc(C)cc(N(CC(=O)NCC2CCCO2)S(=O)(=O)c2c(C)noc2C)c1 (configuration not stated),21%,-0.9,1.9%,-32%[inhibitor],3%,.,-2
Cc1cc(C(=O)NCCN2CCOCC2)c2ccccc2n1,.,.,-14%,?,7%,.,.
Cc1nnc2ccc(N3CCN(c4cccc(C(F)(F)F)c4)CC3)nn12,-3%,3.2,-4.1%,11%,?,-5,-29
CN1C(=O)C(CC(=O)Nc2ccccc2)S/C1=N/c1nccs1 (configuration not stated),15%,0.0,1.5%,23%,11%,-1,2
N#CCC(=O)Nc1ccc(C(=O)OCC(=O)c2c[nH]c3ccccc23)cc1,.,.,.,?,-3%,.,-2
CN(C(=O)COc1ccc(C(C)(C)C)cc1)C1CCS(=O)(=O)C1 (configuration not stated),7%,0.8,0.2%,-72%[inhibitor],4%,2,25
COc1ccc(C[C@@H]2CN3C(=NC[C@@H]3Cc3ccc(O)cc3)N2C[C@H](C)NC(=O)CCC2CCCCC2)cc1,79µM*,1.0,-4.2%,.,-5%,8,-28
CCCCc1ccc(NC(=S)NCC2CCCO2)cc1 (configuration not stated),9%,-3.8,.,20%,3%,1,2
CC(=O)NC1CCC(=O)C=C1c1ccccc1 (configuration not stated),.,.,-3.9%,?,3%,.,-15
O=C(O)c1ccccc1-c1ccccc1C(=O)NCCc1ccccc1,6%,-1.2,0.9%,-25%,-4%,1,.
Cn1c(SCC(=O)c2ccccc2)nnc1-c1cnccn1,?,3.6,-1.5%,-31%[inhibitor],9%,-36,4
O=C1OC(c2cccc([N+](=O)[O-])c2)C2(CCCC2)C(=O)C12CCCCC2 (configuration not stated),3%,4.2,?,-4%[15.4 µM],-26%,11,2
Cn1c(CN2CCCC2)nc2cc(NC(=O)COc3ccccc3)ccc21,15%,2.0,-6.1%,-19%,5%,18,3
Cc1cccc2nc(-c3cccnc3)c(Nc3ccccc3)n12,-14%,-2.6,.,-15%[15.4 µM],?,-2,0
CCCOc1ccc(C(F)(F)F)cc1NC(=O)c1cc(C)on1,.,.,3.8%,-1%,7%,-4,-4
CCOC(=O)N1CCC(NC(=O)CCCC(=O)O)CC1,6%,2.7,0.2%,-20%[15.4 µM],10%,-2,4
Cc1noc(C)c1CN1C(=O)c2cccc([N+](=O)[O-])c2C1=O,5%,6.6,.,-8%[15.4 µM],-11%,7,-13
COc1ccccc1NC(=O)N(C1CCCC1)C1CCN(C(C)=O)CC1,-13%,1.0,-0.5%,-2%,-1%,-2,5
Cc1cc(C)n(CC(=O)c2ccccc2)c(=O)c1C#N,15%,2.4,-2.2%,-10%,-1%,10,2
Cc1cccc(C(=O)Nc2cccc(C(=O)Nc3cc(C)ccn3)c2)c1,5%,3.7,-0.2%,-30%[inhibitor],-8%,-23,.
CCOC(=O)c1ccc(NC(=O)CSc2nnnn2CCCO)cc1,9%,6.2,0.3%,12%,4%,9,4
Cc1oc(-c2ccccc2F)nc1CN1CCC(C(=O)NC2CC2)CC1,20%,-1.2,-2.6%,13%,0%,8,1
Cc1ccc(S(=O)(=O)N2CCOCCOCCOCCOCCOCC2)cc1,11%,-0.6,0.9%,-24%,3%,1,10
OCCNc1nc(-c2ccccc2)c2cc(Br)ccc2n1,20%,0.0,-11%,?,7%,12,6
COc1ccc(NC(=O)CN(C)C(=O)c2ccc(COc3ccccc3)o2)cc1,.,.,-7.2%,-38%[inhibitor],5%,1,-7
Cc1cc(C(=O)N2CCCC2)n[nH]1,15%,0.2,-0.5%,?,13%,6,8
COc1cc(OC)c(C(=O)NNC(=O)c2ccccc2-n2cccc2)cc1OC,.,.,-12%,-23%,-2%,.,-19
NC(=S)N=Nc1ccc(O)cc1,.,.,-15%,-15%,0%,.,0
CC(=O)O[C@@H](C[C@@H](C)C1=C2C[C@H](O)C3[C@@]4(C)CCC(=O)C(C)(C)C4CC[C@]3(C)[C@@]2(C)CC1)[C@H]1OC1(C)C (some centres not stated),.,.,0.8%,.,-21%,.,1
O=C1[C@H](Cc2ccccc2)NCC=CC[C@@H](c2ccc(Cl)cc2)N1Cc1ccccc1,.,.,0.0%,.,-3%,.,-13
CCCn1c(=O)n(C)c(=O)c2c(SCC(=O)Nc3cc(C)on3)nc(C(C)(C)C)nc21,.,.,-1.0%,6%,-8%,2,-11
CC1CCCN(C(=O)CCCn2c(=S)[nH]c3ccccc3c2=O)C1 (configuration not stated),?,2.6,0.1%,9%,-7%,-9,-3
COc1cc(C(=O)ON=C2C=C(C)C(=O)C(C)=C2)cc(OC)c1OC,3%,0.7,-13%,6%,4%,-4,4
O=C(C[n+]1cc(Br)cc(Br)c1)c1cccc([N+](=O)[O-])c1,-12%,5.6,.,-2%[15.4 µM],-2%,-7,-5
COc1ccc(NC(=S)NCc2cccs2)cc1,24%,-0.3,.,-15%[15.4 µM],1%,-12,.
O=C(c1ccc(Br)cc1)c1cc([N+](=O)[O-])ccc1N1CCCCC1,-9%,1.2,-0.7%,0%,20%,16,-9
O=C(NNC(=S)Nc1ccccc1C(F)(F)F)c1cccnc1,22%,3.5,.,-2%[15.4 µM],.,12,-8
Cc1cccc(-c2nc(CN3CCCC(C(=O)NC4CCCCCC4)C3)c(C)o2)c1 (configuration not stated),1%,0.6,0.2%,?,-10%,-27,-10
CN(C)c1nc(N(C)C)nc(N2CCCCC2)n1,13%,-0.4,-0.4%,10%,-5%,6,-1
Cc1cc(SCC(=O)N2CCC(c3noc4ccc(F)cc34)CC2)nc2ccccc12,6%,5.2,-4.0%,20%,-7%,?,3
O=C(O)c1cccc(Nc2nc(-c3cc4ccccc4oc3=O)cs2)c1,-11%,2.1,?,5%[15.4 µM],35µM*,7,-79*
COc1ccc(/C(C)=C2/SC(=S)N(CCC(=O)O)C2=O)cc1,?,6.1,-0.4%,-40%[inhibitor],-29%,13,-16

# Compound profiles, from the list above.
# Listed for Cc1cc(C(=O)N2CCCC2)n[nH]1 → Sfp PPTase inh: 15%; Menin MLL FP FL: 0.2; ClpP mod: -0.5%; gsp ag: ?; gsp antag: 13%; TRPV1 potentiator: 6; CtBP-E1A inh: 8
# Listed for CC(=O)O[C@@H](C[C@@H](C)C1=C2C[C@H](O)C3[C@@]4(C)CCC(=O)C(C)(C)C4CC[C@]3(C)[C@@]2(C)CC1)[C@H]1OC1(C)C (some centres not stated) → Sfp PPTase inh: .; Menin MLL FP FL: .; ClpP mod: 0.8%; gsp ag: .; gsp antag: -21%; TRPV1 potentiator: .; CtBP-E1A inh: 1

# Going on with the list:
compound,Sfp PPTase inh,Menin MLL FP FL,ClpP mod,gsp ag,gsp antag,TRPV1 potentiator,CtBP-E1A inh
Cc1nc2sc(C(=O)Nc3ccccc3Cc3ccccc3)c(C)c2c(=O)[nH]1,-2%,2.2,-4.1%,-3%,4%,-13,.
Cc1ccc(NC(=O)Nc2nnc(-c3ccccc3F)s2)cc1,-2%,-0.1,-0.3%,8%[15.4 µM],2%,10,-1
CN(C)C(CNC(=O)c1ccc(C(F)(F)F)cc1)c1ccco1 (configuration not stated),-3%,.,-5.2%,5%,13%,-12,-10
CC(C)[C@H](N)c1nnc(SCc2ccc(Cl)cc2)o1,13%,1.9,-0.1%,-19%,8%,-24,7
CC(C)C[C@H](NC(=O)CCCn1nnc2ccccc2c1=O)C(=O)O,9%,-0.8,3.8%,26%,?,7,3
COc1ccc2[nH]c(=O)c(CN(C(=O)NC3CCCCC3)C3CCCCC3)cc2c1,-6%,-1.7,?,9%,4%,12,-8
COc1ccc([N+](=O)[O-])cc1NC(=O)c1ccc(C)o1,7%,-0.7,-0.2%,-38%[inhibitor],-7%,12,6
CC(=O)Nc1ccc(NC(=O)c2ccc(NS(=O)(=O)c3cccc4cccnc34)cc2)cc1,5%,1.5,.,-4%[15.4 µM],7%,3,5
Cc1ccsc1C(=O)Nc1nnc(-c2ccco2)o1,9%,2.2,-1.3%,16%,-2%,6,?
O=C(NC1CCCCC1)C(c1ccccc1)N(Cc1cccnc1)C(=O)c1csnn1 (configuration not stated),12%,-1.0,.,26%,2%,5,6
O=C(NCCc1nc(-c2ccccc2)cs1)c1ccc(Br)cc1,0%,0.0,-2.3%,-6%[15.4 µM],?,?,0

# Source: PubChem (National Center for Advancing Translational Sciences (NCATS))
